YopH PTP inh: blocks Yersinia enterocolitica YopH tyrosine phosphatase. fluorescence Ex485/Em525. inhibition, %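 (about 10 µM by stock and volumes)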. hit rate 0.16% among 140,000. AID 898;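 active = inhibition of 50% or more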;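 note: controls were vehicle for no effect and minimum signal wells for full effect; inactives centre near -20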
Mtb growth: M. tuberculosis H37Rv growth inhibitors, H37Rv strain (AID 1626) | M. tuberculosis H37Rv growth inhibition; higher % means a stronger effect | one-dose inhibition, % at 10 µM; IC50 in µM for titrated hits | hit rate 0.95% among 220,000;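 active = confirmed in a dose series; inconclusive = inhibition above 80% but not taken into the dose series; inactive = below 80% or under 30% at every dose of the series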;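 note: bacteria incubated seven days before Alamar blue readout; 0% = bacteria only wells and 100% = bacteria with antibiotic wells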
Mtb betalactam: beta-lactam sensitization of Mtb H37Rv. M. tuberculosis H37Rv growth with meropenem, percent inhibition; hits of this screen are not shown here. hit rate 0.27% among 330,000. inhibition, % at 25 µM. AID 434955;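 active = about 74% or more and at least 40 points above the plate without the antibiotic, then above 30% in a dose series; inconclusive = first-round hits that could not be retested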;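 note: growth measured after seven days incubation then overnight dye step; 0% = bacteria only wells and 100% = bacteria with antibiotic; twin plates without the antibiotic show which effects depend on it; some results filed as inactive read as strong as hits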
RecA splice inh: blocks M. tuberculosis RecA intein splicing. P9WHJ3. cell-free RecA intein splicing, fluorescence. inhibition, %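 (about 9 µM by stock and volumes)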. hit rate 0.75% among 290,000. AID 2221; in the data active = inhibition above about 30%; inconclusive = no clear call, values can overlap the other calls;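 note: 0% = vehicle wells and 100% = reference inhibitor control wells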
Target sequence (P9WHJ3 whole entry, looked up, canonical isoform): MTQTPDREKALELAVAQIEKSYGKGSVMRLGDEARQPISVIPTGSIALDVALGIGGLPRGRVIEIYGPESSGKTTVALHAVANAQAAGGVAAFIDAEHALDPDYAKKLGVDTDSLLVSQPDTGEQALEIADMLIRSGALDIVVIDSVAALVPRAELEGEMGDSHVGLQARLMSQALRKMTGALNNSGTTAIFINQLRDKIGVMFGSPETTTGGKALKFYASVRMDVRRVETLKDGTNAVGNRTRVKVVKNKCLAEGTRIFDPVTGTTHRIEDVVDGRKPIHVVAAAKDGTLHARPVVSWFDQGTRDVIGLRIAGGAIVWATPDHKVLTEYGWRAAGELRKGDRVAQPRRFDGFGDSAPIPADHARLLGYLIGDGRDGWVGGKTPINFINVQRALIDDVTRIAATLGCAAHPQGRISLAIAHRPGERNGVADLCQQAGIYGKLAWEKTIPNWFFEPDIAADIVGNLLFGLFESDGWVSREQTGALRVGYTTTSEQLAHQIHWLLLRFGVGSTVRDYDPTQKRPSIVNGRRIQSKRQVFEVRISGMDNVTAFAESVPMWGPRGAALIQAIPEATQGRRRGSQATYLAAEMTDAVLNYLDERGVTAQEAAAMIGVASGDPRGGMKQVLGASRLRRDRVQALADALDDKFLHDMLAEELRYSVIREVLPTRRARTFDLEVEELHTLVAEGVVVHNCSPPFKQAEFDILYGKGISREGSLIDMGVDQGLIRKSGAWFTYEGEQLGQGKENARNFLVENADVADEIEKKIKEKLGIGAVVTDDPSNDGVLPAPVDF
Arbovirus anti: antivirals against arbovirus infection. arbovirus infection cell-based antiviral screen. inhibition, % at 10 µM. hit rate 0.37% among 200,000. AID 1251;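 active = inhibition from about 30%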;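 note: bluetongue infection of BSR cells; cell survival read as ATP light after 72 h; 0% = infected wells without compound and 100% = uninfected wells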
Arbovirus anti repeat: also measured in Arbovirus anti; calls as there; inhibition, %; measured here: 10K subset replicate screen; many hits read low in the repeat;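 first of two repeat runs on a subset; 0% = infected and 100% = uninfected wells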
An asterisk follows results filed as active; ? = inconclusive; / = not tested or not shown. Only part of the results is shown; the hit share may differ from the screen's.

SMILES | YopH PTP inh | Mtb growth | Mtb betalactam | RecA splice inh | Arbovirus anti | others
CN1CCN(C2=NC(=O)/C(=C/c3cn[nH]c3-c3ccccc3)S2)CC1 | / | -3% | -6 | 1.4 | /
CCN(CC)CCNCc1cc(Cl)c(OCC(=O)Nc2ccccc2)c(OC)c1 | / | 7% | 1 | -0.5 | -4
CN(Cc1ccco1)C(=O)Cn1nc(-c2ccc(Cl)cc2)ccc1=O | / | 4% | -6 | -0.4 | 5
O=C(O)c1cc(S(=O)(=O)NCC2CCCO2)ccc1Cl (configuration not stated) | 7 | -3% | 1 | 1.2 | 8
Cc1c(Cl)cccc1NC(=O)CSc1nnc(C)n1-c1ccccc1 | -10 | -13% | -7 | 1.5 | 3
CCCN(S(=O)(=O)c1ccccc1F)S(=O)(=O)c1ccccc1Br | / | / | -4 | 8.0 | /
CCc1nnc(NC(=O)Cc2ccc(OCc3c(C)noc3C)cc2)s1 | -48 | 2% | -8 | -0.1 | 6
COc1cccc(NC(=O)CNC(=O)c2ccc([N+](=O)[O-])cc2)c1 | / | 5% | 5 | -0.6 | /
CCS(=O)(=O)N1CCN(C(=O)c2cc(OC)cc(OC)c2)CC1 | -34 | 0% | -5 | -1.4 | -2
O=C(CC12CC3CC(CC(Br)(C3)C1)C2)NC1CCCC1 | / | / | -2 | -2.9 | /
CC(=O)N1c2c(cc(Br)cc2S(=O)(=O)N2CCN(c3ccccn3)CC2)CC1C (configuration not stated) | -7 | 2% | ? | -3.8 | 7 | Arbovirus anti repeat=3
CC(C)CCN(N=O)[C@@H](Cc1ccccc1)CN(N=O)[C@@H](Cc1ccccc1)CN(C)N=O | / | -11% | -7 | 0.4 | 8
O=C(CSc1nccn1Cc1ccco1)Nc1cccc(F)c1 | / | / | 5 | 0.6 | /
CCN(CC)C1CCN(c2nc3nonc3nc2NCCOC)C1 (configuration not stated) | / | 4% | -4 | -0.6 | 1
COc1ccc(-n2c(SCC(=O)NCc3ccco3)nc3sc4c(c3c2=O)CCN(C)C4)cc1 | / | / | -4 | 2.3 | /
CCCNC(=O)CNC(=S)N(Cc1ccccc1F)C1CCCCC1 | / | 3% | 4 | 0.4 | 5
O=C(CCCN1C(=O)/C(=C/c2ccc(F)cc2)SC1=S)NC1CCS(=O)(=O)C1 (configuration not stated) | / | / | 3 | 11 | /
CCCN1C(=O)/C(=C\c2ccncc2)SC1=Nc1ccccc1 | -27 | 12% | 3 | 1.5 | 17
COCCCNc1nc2c([nH]1)c(=O)[nH]c(=O)n2C | -10 | 2% | 0 | -2.5 | 0
COc1ccc(NC(=O)NNC(=O)COc2ccc3ccccc3c2)cc1OC | / | / | 3 | 0.9 | /
CCC(CCC(=O)Nc1nncs1)C(=O)O (configuration not stated) | -4 | 5% | / | / | -2
OC(CN1CCN(c2cccc(Cl)c2)CC1)c1ccccc1 (configuration not stated) | / | / | 14 | 0.8 | /
Cc1ccc(N2CCN(C(=O)C3CCC(=O)N(Cc4ccc(Cl)cc4)C3)CC2)c(C)c1 (configuration not stated) | / | / | 30 | 6.0 | /
Cc1cc(NC(=O)Nc2ccc(F)cc2F)n(C)n1 | / | 6% | -4 | -1.2 | -2

Sorted by SMILES length (rising): some entries from above.
SMILES | YopH PTP inh | Mtb growth | Mtb betalactam | RecA splice inh | Arbovirus anti | others
CCC(CCC(=O)Nc1nncs1)C(=O)O (configuration not stated) | -4 | 5% | / | / | -2
Cc1cc(NC(=O)Nc2ccc(F)cc2F)n(C)n1 | / | 6% | -4 | -1.2 | -2
CCN(CC)C1CCN(c2nc3nonc3nc2NCCOC)C1 (configuration not stated) | / | 4% | -4 | -0.6 | 1
OC(CN1CCN(c2cccc(Cl)c2)CC1)c1ccccc1 (configuration not stated) | / | / | 14 | 0.8 | /
COCCCNc1nc2c([nH]1)c(=O)[nH]c(=O)n2C | -10 | 2% | 0 | -2.5 | 0
CCCNC(=O)CNC(=S)N(Cc1ccccc1F)C1CCCCC1 | / | 3% | 4 | 0.4 | 5
CCCN1C(=O)/C(=C\c2ccncc2)SC1=Nc1ccccc1 | -27 | 12% | 3 | 1.5 | 17
Cc1c(Cl)cccc1NC(=O)CSc1nnc(C)n1-c1ccccc1 | -10 | -13% | -7 | 1.5 | 3
CCc1nnc(NC(=O)Cc2ccc(OCc3c(C)noc3C)cc2)s1 | -48 | 2% | -8 | -0.1 | 6
CCS(=O)(=O)N1CCN(C(=O)c2cc(OC)cc(OC)c2)CC1 | -34 | 0% | -5 | -1.4 | -2
CCCN(S(=O)(=O)c1ccccc1F)S(=O)(=O)c1ccccc1Br | / | / | -4 | 8.0 | /
COc1cccc(NC(=O)CNC(=O)c2ccc([N+](=O)[O-])cc2)c1 | / | 5% | 5 | -0.6 | /
CC(=O)N1c2c(cc(Br)cc2S(=O)(=O)N2CCN(c3ccccn3)CC2)CC1C (configuration not stated) | -7 | 2% | ? | -3.8 | 7 | Arbovirus anti repeat=3
O=C(CCCN1C(=O)/C(=C/c2ccc(F)cc2)SC1=S)NC1CCS(=O)(=O)C1 (configuration not stated) | / | / | 3 | 11 | /
Cc1ccc(N2CCN(C(=O)C3CCC(=O)N(Cc4ccc(Cl)cc4)C3)CC2)c(C)c1 (configuration not stated) | / | / | 30 | 6.0 | /
COc1ccc(-n2c(SCC(=O)NCc3ccco3)nc3sc4c(c3c2=O)CCN(C)C4)cc1 | / | / | -4 | 2.3 | /
CC(C)CCN(N=O)[C@@H](Cc1ccccc1)CN(N=O)[C@@H](Cc1ccccc1)CN(C)N=O | / | -11% | -7 | 0.4 | 8

Additional compounds.
SMILES | YopH PTP inh | Mtb growth | Mtb betalactam | RecA splice inh | Arbovirus anti | others
Cc1ccc(S(=O)(=O)NCC(c2ccc3c(c2)OCO3)N2CCOCC2)cc1 (configuration not stated) | / | / | -2 | -0.2 | /
Cc1nc(NCC2CCCO2)[nH]c(=O)c1CCC(C)C (configuration not stated) | -24 | 1% | -22 | -3.8 | 9
Cc1oc(-c2ccccc2F)nc1CN1CCC(C(=O)NCCC2=CCCCC2)CC1 | -21 | -5% | -20 | 0.1 | -7
COc1ccc(C(=O)N/N=C/c2sc(=O)n(Cc3cccc(C(=O)O)c3)c2Cl)cc1 | / | -6% | -1 | -2.1 | /
Cc1noc(C)c1COc1ccc(C(=O)N2CCN(S(=O)(=O)c3ccc(Cl)cc3)CC2)cc1 | / | / | 1 | 1.2 | /
CCCCN(C(=O)CSc1nnc2ccccn12)c1c(N)n(Cc2ccccc2)c(=O)[nH]c1=O | -20 | 0% | 8 | 0.4 | -4
O=C(CSCc1cnn(-c2ccccc2)c1-n1cccc1)NCc1ccc2c(c1)OCO2 | -20 | 7% | / | 16 | 1
NS(=O)(=O)c1ccc(NC(=O)CSc2nnc(COc3ccccc3Cl)n2C2CC2)cc1 | 9 | -1% | 13 | / | 8
CC(=O)c1sc(NC(=O)C2COc3ccccc3O2)nc1C (configuration not stated) | -26 | -4% | 0 | 0.4 | 12 | Arbovirus anti repeat=1
CC(C)(C)C(=O)OC/C(N)=N/OC(=O)c1ccccc1 | / | -2% | -6 | -1.4 | /
CCCCCc1ccc(C2=NNC(=O)CC2)cc1 | / | / | 6 | 6.3 | /
C=CCNC(=O)c1cccc(NS(=O)(=O)c2ccc(Cl)cc2)c1 | / | -6% | -11 | 0.9 | 5
CCOc1cccc2c1OC1(C)CC2NC(=O)N1c1ccc(OC)cc1 (configuration not stated) | -17 | -6% | 8 | 1.2 | -2
CCOC(=O)c1ccc(N2C(=O)CC(NC3CCN(C(=O)c4ccc(F)cc4)CC3)C2=O)cc1 (configuration not stated) | -28 | -4% | 0 | -2.6 | 4
O=C(CCCN1C(=O)/C(=C/c2cccs2)SC1=S)Nc1cccc(C(=O)O)c1 | / | 8% | 6 | 18 | 38*
CN1C(=O)NC(c2ccccc2)C2=C1CN(c1cccc(C(F)(F)F)c1)C2=O (configuration not stated) | -17 | -6% | -5 | -0.8 | -6
CC(C)CNC(=O)c1noc2c1CCCC2 | -40 | 5% | -3 | 2.0 | 16
Cc1ccc(C(=O)NCc2ccccc2F)cc1S(=O)(=O)N1CCCC1 | / | / | -2 | 2.9 | /
COc1ccc(-n2c(O)c(C=Nc3c(C)n(C)n(-c4ccccc4)c3=O)c(=O)[nH]c2=O)cc1 | -27 | 7% | -3 | -8.3 | 1
CN(C)/C=C/C(=O)/C=C/c1ccc(Cl)cc1Cl | / | -1% | -6 | 11 | -13
CSc1nc(N(C)NC(=O)c2ccccc2)c2ccccc2n1 | -35 | -4% | 14 | 2.8 | -8
O=C(NCCNC(=O)c1ccc(Cl)cc1Cl)c1ccco1 | / | / | 1 | 1.2 | /
CCC(=O)N(Cc1ccccc1)c1ccccn1 | -5 | -2% | 2 | 0.4 | 7
COc1ccc(C2=NOC(C(=O)NCc3ccco3)C2)cc1OC (configuration not stated) | -17 | -10% | -1 | -1.0 | -14
Cc1cc(C)cc(NC(=O)CCn2ccnc2C)c1 | 17 | 0% | -2 | -3.2 | 8
COc1ccc(S(=O)(=O)N2CCCC(C(=O)NCCc3ccccc3)C2)cc1 (configuration not stated) | / | / | 6 | 0.2 | /
N#CCC(=O)Nc1ccc(C(=O)OCC(=O)NNC(=O)c2ccc(Cl)cc2)cc1 | / | / | -5 | 0.1 | /
On1c(-c2ccccc2)nc2ccc(Cl)cc21 | -44 | 14% | 11 | -0.4 | 10
CN(C)S(=O)(=O)c1cccc(COC(=O)C2=COCCO2)c1 | -41 | 46% | 80 | -0.6 | 5
CC(C)CNC(=O)CSc1nc(-c2cccs2)cc(C(F)(F)F)n1 | -15 | 6% | -6 | 2.6 | -6
Cc1nn(CC(=O)NCc2cccc(F)c2)c(=O)c2cccn12 | / | / | 4 | 0.2 | /
COC(=O)c1c(NC(=O)c2ccco2)sc2c1CCN(C(C)C)C2 | / | / | -8 | -2.4 | /
COc1ccc(-c2cc(C(=O)Nc3c(C)n(C)n(-c4ccccc4)c3=O)c3ccccc3n2)cc1OC | / | / | 7 | -0.4 | /
COCCCNS(=O)(=O)c1ccc2c(c1)OCCO2 | 0 | -8% | -2 | 1.8 | -2
CN1CCC(N(C)C(=O)COc2ccc(S(=O)(=O)N3CCOCC3)cc2)CC1 | / | -3% | -6 | -3.4 | -9
CC12COC3(C(=O)Nc4ccc5ccccc5c4)CC1CCC32C (configuration not stated) | / | 10% | 2 | 11 | 8
O=C(NNc1cccc(Cl)n1)Nc1cccc(C(F)(F)F)c1 | -18 | 7% | -1 | 0.1 | 6
COc1cc(SC)ccc1C(=O)OCC(=O)N1CCN(C(C)=O)CC1 | / | / | 2 | -4.6 | /
CNC(=S)NNC(=O)c1sccc1OCc1ccc(C)cc1 | -41 | 1% | -20 | 12 | -3
O=C1/C(=C/c2cccnc2)Oc2cc(OS(=O)(=O)c3ccc(F)cc3)ccc21 | -5 | 73µM* | 82 | -2.6 | 2
COc1ccccc1N1CCN(C(=O)CSc2nc(-c3ccccc3)cc(=O)[nH]2)CC1 | -14 | 6% | -8 | -0.4 | 15
Cn1nc(Oc2ncc(C(F)(F)F)cc2Cl)cc1C(F)(F)F | / | 2% | 0 | 3.6 | 5
CCn1c(C)c(C)c2cc(C(=O)N3CCc4ccccc4C3)ccc21 | / | / | 62 | 12 | /
O=c1c2c3c(sc2nc2n1CCCCC2)CCC3 | -9 | 2% | -4 | -3.8 | -9
CCOC(=O)C1CCN(C(=O)Cn2nc(CC)n3cccc3c2=O)CC1 | / | / | 0 | -1.9 | /
Cc1nc2ccc(S(=O)(=O)Nc3ccccc3C)cc2s1 | -31 | -9% | -5 | 5.3 | -2
Cn1c(SCC(=O)c2ccccc2)nnc1C1CC1 | -16 | 4% | -2 | -0.7 | -2
Cc1ccc(SCCNC(=O)c2ccccc2)cc1 | -32 | 1% | -2 | -2.1 | -2
O=C(Oc1cccc(N2C(=O)CCC2=O)c1)C1CC(=O)N(c2ccc(F)cc2)C1 (configuration not stated) | -24 | -4% | 6 | 11 | -2
